MbtI inh = MbtI salicylate synthase inhibition | purified MbtI enzyme, fluorescence intensity read-out | inhibition, %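 (about 17 µg/mL by stock and volumes)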 | 0.89% of 100,000 active | P9WFX0;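 active means above 50% in both replicates, above 80% if mildly self-fluorescent; inactive means the rest, strongly fluorescent compounds included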;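 further: 0% = mean of negative and 100% = mean of positive controls; one replicate is shown; some compounds called inactive have numbers as strong as hits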
Mtb MenB inh = Mtb MenB enzyme inhibition. P9WNP5. MenB enzyme assay, absorbance read-out; some hits fall short of the stated cut. 0.43% of 100,000 active. inhibition, %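 (about 12 µg/mL by stock and volumes)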;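 active means mean of two replicates above 30%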;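 further: 0% = no compound and 100% = wells with inactive enzyme; the first replicate is given; strong numbers were not always called active; inactives centre near -10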
Target sequence (P9WNP5 whole entry, looked up): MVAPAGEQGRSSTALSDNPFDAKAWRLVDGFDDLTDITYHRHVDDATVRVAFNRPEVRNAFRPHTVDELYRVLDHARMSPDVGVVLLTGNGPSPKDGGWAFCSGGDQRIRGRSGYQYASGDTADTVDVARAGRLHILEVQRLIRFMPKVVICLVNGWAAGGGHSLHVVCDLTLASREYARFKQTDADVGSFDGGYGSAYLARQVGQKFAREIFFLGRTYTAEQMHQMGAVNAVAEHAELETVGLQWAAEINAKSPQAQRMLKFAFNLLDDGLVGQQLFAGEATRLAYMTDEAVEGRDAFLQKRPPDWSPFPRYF
Polio RdRp inh = poliovirus RNA polymerase inhibition; % elongation, % (compound at 16.7 µg/mL); poliovirus polymerase elongation, fluorescence polarization; stronger effect = lower value; 0.66% of 150,000 active; AID 588519; P03300; in the data active means % elongation below about 90%; further: some results filed as inactive read as strong as hits
Target sequence (P03300 1749-2209 limits assumed): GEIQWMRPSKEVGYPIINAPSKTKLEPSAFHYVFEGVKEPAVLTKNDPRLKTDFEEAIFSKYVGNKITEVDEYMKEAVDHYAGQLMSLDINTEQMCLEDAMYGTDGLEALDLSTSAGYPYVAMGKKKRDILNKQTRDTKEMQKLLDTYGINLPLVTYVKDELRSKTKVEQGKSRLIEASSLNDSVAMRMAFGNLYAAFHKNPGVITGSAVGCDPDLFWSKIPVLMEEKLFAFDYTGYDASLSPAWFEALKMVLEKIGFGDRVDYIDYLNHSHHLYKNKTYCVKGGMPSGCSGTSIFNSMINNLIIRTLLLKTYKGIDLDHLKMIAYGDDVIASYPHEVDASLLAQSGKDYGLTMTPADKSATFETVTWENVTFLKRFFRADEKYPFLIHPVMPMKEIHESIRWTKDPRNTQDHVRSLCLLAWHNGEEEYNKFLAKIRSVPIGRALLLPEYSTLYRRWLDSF
Polio RdRp inh intensity = also measured in Polio RdRp inh; calls as there; % elongation; measured here: total intensity read-out; formula for this scale not given here;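 total fluorescence in place of polarization; lower means less elongation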
* = called active by the depositor; i = inactive; . = not tested or not shown; & = joins results of further samples.

SMILES	MbtI inh	Mtb MenB inh	Polio RdRp inh	Polio RdRp inh intensity
Cc1[nH]c2ccccc2c1C(=O)CN1CCN(S(=O)(=O)c2ccccc2F)CC1	-5	-39	107	112
CCN(CC)CCn1c2ccccc2c2nc(C)sc21	36	14	101	102
COC(=O)C1=C(C)N(C2CCCC2)C(=O)C1(NC(C)=O)C(F)(F)F (stereo not given)	-2	-6	101	104
O=C1CCCC2=C1C(c1ccccc1O)C1=C(CCCC1=O)O2	.	-19	104	109
O=C(O)CCC(=O)N1CCSc2ncccc21	3	-24	106	101
Cc1nc(N)[nH]c(=O)c1CCC(=O)O	-5	-12	105	112
Cc1cc(C)c2c(=O)cc(C(F)(F)F)oc2c1	-9	3	102	99
COc1ccc(-c2cc(C(=O)NC3CCCC3)c3ccccc3n2)cc1	106	-11	102	107
CC(C(=O)O)n1ncc2ccccc2c1=O (stereo not given)	2	-31	101	103
CCCCc1ccc(NC(=O)CC)cc1	1	-6	104	107
c1ccc2[nH]c(SN3CCCCC3)nc2c1	97*	-8	100	93
NC(=O)C1OC(c2ccccc2)OC1C(N)=O (stereo not given)	1	.	106	100
COc1ccccc1C(=O)NCc1ccc2[nH]c3c(c2c1)CCCC3	-7	-9	99	99
c1ccc(CN(Cn2nnc3ccccc32)Cn2nnc3ccccc32)cc1	4	-17	101	102
CC(Oc1ccccc1)c1nnc(N)s1 (stereo not given)	13	-9	104	102
COC(=O)Cn1ncn2nc(-c3cccs3)cc2c1=O	31	-4	102	105
Cc1cccc(C2N(Cc3ccccc3)CCCN2Cc2ccccc2)n1	-13	-17	103	102
CC(C)COc1cccc(OCC(=O)Nc2ccc(F)cc2)c1	-12	.	103	103
CCn1c(=O)c2sccc2n2c(CCCC(=O)NCc3cccnc3)nnc12	9	-14	103	97
Cc1cccc(NC(=O)c2sc3[nH]c(=O)c(C(=O)O)cc3c2N)c1C	10	3	100	98
Cc1cc(=O)oc2cc(OCc3ccc(C(=O)O)cc3)ccc12	103	5	91	96
COc1ccc(N2CCN(C(C)=C3C(=O)c4ccccc4C3=O)CC2)cc1	5	-48	103	102
O=C(NCc1ccc2c(c1)OCO2)c1ccc(N2CCCCS2(=O)=O)cc1	2	-20	109	113
O=C(CSc1ccc(-c2ccncc2)nn1)Nc1ccccc1	-12	-6	100	99
CCOc1ccc(/C=C/C(=O)NC(C)C)cc1	-3	-23	100	104
O=C(Nn1cnnc1)c1cc2ccccc2oc1=O	-2	-3	102	104
Cc1onc(-c2c(F)cccc2Cl)c1C(=O)OCC(=O)N(C)c1ccccc1	-10	-24	105	109
CN(C)CCCNc1ncnc2ccc(Br)cc12	-8	1	100	99
Cc1ccc(S(=O)(=O)NC(=O)Nc2ccccc2)cc1	-7	-28	102	94
CC(NC(=O)Oc1c(Cl)cc(Cl)c2ccccc12)(C(F)(F)F)C(F)(F)F	.	7	104	98
CCc1ccc2c(CN3CCN(Cc4ccccc4)CC3)cc(=O)oc2c1	-24	-4	109	115
C=CCn1c(SCC(=O)Nc2ccccc2)nc2scc(-c3cccs3)c2c1=O	-3	-25	105	108
COCCNc1cnn(C23CC4CC(CC(C4)C2C(=O)O)C3)c(=O)c1Cl (stereo not given)	12	-10	101	102
CC1SCC(=O)N(CC(=O)Nc2ccc3c(c2)OCO3)C1=O (stereo not given)	-5	0	105	101
CN(C(=O)CSc1nc2ccc(Br)cc2c(=O)n1Cc1ccco1)C1CCS(=O)(=O)C1 (stereo not given)	5	-12	102	100
Cc1ccc(NC(=O)N(C2=NCC(C)(C)S2)c2ccc(F)c(Cl)c2)cc1	-14	-9	103	97
Cc1cc(C)c(S(=O)(=O)N2CCC(C(=O)OC(C)C(=O)N3CCC(C)CC3)CC2)c(C)c1 (stereo not given)	-3	-31	99	93
N#Cc1ccc(CSc2nnnn2C2CC2)cc1	-9	-18	35*	55*
COC(=O)c1ccc(S(=O)(=O)NC2CCN(Cc3ccccc3)CC2)n1C	-4	-5	101	106
CC1=C(c2ccc(F)cc2)N2CCS(=O)(=O)N=C2S1	-1	-2	107	109
CCN=C1N=C(c2ccccc2)N=P(NCC)(NCC)N1	-2	-29	100	102
Cc1ccc(C2c3c(oc4ccccc4c3=O)C(=O)N2Cc2ccco2)cc1 (stereo not given)	-5	-2	101	103
O=C1NN(c2ccc(Cl)c(Cl)c2)C(=O)/C1=C\C=C\c1ccccc1	.	8	106	112
CN(Cc1ccccc1F)C(=O)CNC(N)=O	19	-45	99	104
C(=Nc1cccc2ccccc12)c1ccc(Sc2nnnn2-c2ccccc2)o1	-84	-5	100	101
O=C1NC(=Nc2cccc3ccccc23)SC1(CO)CO	-18	-24	102	97
COc1ccc(C(CC(=O)O)NS(=O)(=O)c2ccccc2F)cc1OC (stereo not given)	-10	-4	100	99
O=C(COc1ccccc1Cl)NC(=O)NCC1COc2ccccc2O1 (stereo not given)	-11	-33	103	101
CN(Cc1ccccc1)C(=O)Cc1noc2ccccc12	-9	-10	99	103
COC(=O)c1ccc(COn2c(=O)c[n+]([O-])c3ccccc32)cc1	4	-16	102	102

Continued.
SMILES	MbtI inh	Mtb MenB inh	Polio RdRp inh	Polio RdRp inh intensity
O=C(CCc1ccc(S(=O)(=O)N2CCOCC2)cc1)N/N=C/c1cccc(O)c1	3	-19	104	104
CCn1c(NN)nc2ccccc2c1=O	7	-20	116	117
CCC1=Nc2cc(C(=O)O)ccc2Sc2ccc(Cl)cc21	1	-5	99	103
N#CCOC(=O)c1c2c(nc3ccccc13)CCC2	106	5	101	106
CCOc1ccc(OC(C)C(=O)O)cc1 (stereo not given)	-7	-19	101	102
COc1ccccc1-n1cnc2cc(C(=O)NCC3CCCO3)ccc21 (stereo not given)	-13	-38	101	103
O=C(NN=Cc1ccc(O)cc1)c1ncn[nH]1	24	-104	99	102
Cc1ccsc1C(=O)OCC(=O)N1CCC(Cc2ccccc2)CC1	3	.	104	98
CCOC(=O)c1ccc2c(c1)nnn2CCc1ccccc1	1	-8	101	103
CNC(=O)c1c(-c2ccc(C)cc2)nc2ccccn12	-6	-28	101	103
CCN(CC)S(=O)(=O)c1cc(C)ccc1NC(=S)NCCN1CCOCC1	10	-4	100	106
O=C1C2C3c4ccccc4C(c4ccccc43)C2C(=O)N1C(CO)(CO)CO (stereo not given)	-10	-42	106	102
Cc1ccc(/C=N/N=C2\SCC(=O)N2CC2CC2)cc1	7	-18	102	96
CC(C)N1CN(CCc2ccccc2)c2nc3ccccc3n2C1	2	6	100	103
CN(C)C(=O)CCN1C(=O)C2C3C=CC(C3)C2C1=O (stereo not given)	-8	0	103	103
COc1ccc(NC2=NP(N(C)C)(N(C)C)=NC(c3ccccc3)=N2)cc1	-4	-25	109	103
CCc1c(C)nc(N)nc1N1NC1=S	13	-5	100	99
Cc1ccccc1-c1coc2cc(O)ccc2c1=O	-174	1	101	110
O=C(O)CSc1c(-c2cccs2)[nH]c2ccccc12	.	-1	100	95
COc1ccc(C(Cl)=C(c2ccc(OC)cc2)c2ccc(OC)cc2)cc1	0&-17	-1&-6	99&101	102&102
CS(=O)(=O)N1CCC(C(=O)NCCc2ccccc2)CC1	-13	-6	103	104
Cc1nn(CC(C)C)c2sc(C(=O)O)cc12	-6	8	100	96
CCN(CC)C(=O)Cn1ncc2c(C)n(Cc3ccccc3F)c(C)c2c1=O	10	0	102	106
Cc1cccc(NC(=O)CCS(=O)(=O)c2ccc3c(c2)n(C)c(=O)c(=O)n3C)c1	-3	2	103	103
CCCc1nc(C)cc(N2CCOCC2)n1	1	7	102	103
Cc1nccn1-c1nc(-c2ccc(F)cc2)cc(C(F)(F)F)n1	-7	-15	101	109
CCOc1ccc(C2(C)CC(C)(C)Nc3ccccc32)cc1 (stereo not given)	.	-4	104	104
N#CC1=C(S)NC(=O)CC1c1ccco1 (stereo not given)	6	-39	79*	82*
CN1CCC(CN)CC1	-9	10	101	109
O=C(CC[n+]1ccc(/C=N/O)cc1)NCc1ccccc1	5	-18	102	102
Cc1csc(SCC(=O)c2cc3ccccc3oc2=O)n1	20	-50	98	98
Cc1nc(Cc2ccc(OC(C)C)cc2)[nH]c(=O)c1CC(=O)O	2	-17	102	104
CCN(CC)c1ccc(CC(=O)NC(C)Cc2ccccc2)cc1 (stereo not given)	.	-8	103	107
NC(=O)NNc1cccc2cccnc12	7	-5	100	104
Cc1nnc(Sc2cc(C(=O)NCCN(C)Cc3ccccc3)c3ccccc3n2)s1	5	10	102	101
CCn1nnc2cc(C(=O)N3CCC(C(=O)OC)CC3)ccc21	-3	-14	99	96
CCN(CC)C(=O)c1sc(N2C(=O)Nc3ccccc3N2O)c(C(=O)OC)c1C	-5	4	103	107
CC(NC(=O)C1CC2CCCC(C1)C2=O)c1ccccc1 (stereo not given)	1	13	101	102
O=C(Cn1nc2n(c1=O)-c1ccccc1SC2)c1cccs1	-5	-2	101	97
C=CCSc1ncccc1C(=O)NCc1ccc(C)cc1	-13	-17	104	107
CN(C(=O)c1ccc(F)cc1)C1CCS(=O)(=O)C1 (stereo not given)	-11	.	101	106
N#C/C(=C\c1ccccc1)C(=O)NC1CC1	i	1	98	103
CC(C1CC2CCC1C2)n1c(SCC(=O)Nc2ccc3c(c2)OCO3)nnc1-c1ccco1 (stereo not given)	5	-12	103	106
OC(CSc1nc(-c2ccccc2)n(-c2ccccc2)n1)C(F)(F)F (stereo not given)	-4	-9	105	110
O=C(O)CCCCN1C(=O)CSC1=S	6	-156	109	106
CN(CCc1ccccn1)c1ncnc2c1cnn2-c1ccc(Cl)cc1	-30	-6	101	103
CN(Cc1c(F)cccc1Cl)C(=O)C1=CC=CN2CCS(=O)(=O)N=C12	31	-9	101	101
CCN(CC)S(=O)(=O)c1ccc2[nH]cc(C(=O)NCCCN3CCN(c4ccc(OC)cc4)CC3)c(=O)c2c1	-21	-39	103	102
COC(=O)C1=C(C)N(C)C(=O)/C1=C\c1ccco1	1	-25	100	103
CCC(=O)Nc1nnc(-c2ccc(Cn3c(-c4cncs4)nc4ccccc43)cc2)s1	12	4	99	101

The results go on:
SMILES	MbtI inh	Mtb MenB inh	Polio RdRp inh	Polio RdRp inh intensity
Cc1nc(Nc2nc3ccccc3s2)[nH]c(=O)c1Cc1ccccc1	-9	2	99	103
Clc1ccc(-c2noc(Cc3ccccc3)n2)cc1	-5	.	100	103
Cc1ccc(-n2c(C)cc(/C=C(\C#N)C(=O)N3CCCCC3)c2C)cc1	7	-23	102	105
O=C(Cn1cc(C(F)(F)F)ccc1=O)c1ccc[nH]1	23	11	103	107
Cc1[nH]ncc1CNC(=O)c1[nH]nc2c1CCc1ccccc1-2	66	-18	101	100
CCNS(=O)(=O)c1ccc2c3c(cccc13)C(=O)N2	27	-33	100	103
CC1CN/C(=C/C(=O)/C=C/c2ccccc2)C(=O)N1 (stereo not given)	-1	-298	100	101
COc1ccc2nc(SCC(=O)O)[nH]c2c1	8	-52	104	100
CCNc1nc(NC(C)CC)nc(ON=C(C)C)n1 (stereo not given)	-4	-3	101	102
CC(NC(=O)COc1ccc(Cl)cc1)C(=O)O (stereo not given)	-11	2	98	103
O=C(CN1CCC(NC(=O)c2ccccc2)CC1)Nc1ccccc1	-8	11	97	92
Cc1ccc(-c2nn(-c3cccc(F)c3)c3c2cnc2cc(F)c(F)cc23)cc1	13	-23	101	100
COC(=O)c1c(NC(=O)C2SC(=NC3CCCCC3)C(C(N)=O)=C2N)sc2c1CCCC2 (stereo not given)	-4	9	98	102
Cc1ccc(C2C3=C(CC(C)(C)CC3=O)Nc3n[nH]c(C)c32)cc1 (stereo not given)	-71	.	101	102
COc1ccc(C2CCCCCN2C(=O)Cn2c(C)csc2=O)cc1 (stereo not given)	-6	-23	99	104
C=C1C2(C(=O)Nc3ccc(C(=O)OC)cc3)CCC(C2)C1(C)C (stereo not given)	-14	-21	97	103
CCCSCC(=O)Nc1ccc(C)cc1C	-13	-22	99	102

Compounds were not picked by outcome, and some 1.9% of all compounds hit somewhere here.
